Compound activity (PubChem)
HPGD block – blocks human HPGD enzyme activity. P15428. purified HPGD, NADH fluorescence kinetic, PGE2 substrate. Potency, µM, without a hit: at the highest dose activity change, negative = inhibition, actives largely listed as inhibitors. actives 4.3% (n = 150,000); active = well fitted inhibition curve with a large enough effect (not every such curve was filed as active); inconclusive = small, poorly fitted or top-dose-only effect, or another doubt; inactive = no such curve, though single readings can be large or run the other way;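 also: top concentration of the series not given in the record; plate controls included wells without enzyme; inactives centre near -10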
Target sequence (P15428 whole entry, looked up): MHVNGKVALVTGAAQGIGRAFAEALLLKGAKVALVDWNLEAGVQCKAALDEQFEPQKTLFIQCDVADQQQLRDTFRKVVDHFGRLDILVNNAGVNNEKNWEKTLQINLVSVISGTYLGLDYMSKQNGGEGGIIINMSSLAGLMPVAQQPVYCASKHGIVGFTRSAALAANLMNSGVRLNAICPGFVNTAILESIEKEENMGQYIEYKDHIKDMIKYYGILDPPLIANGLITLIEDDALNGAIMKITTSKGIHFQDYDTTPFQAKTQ
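20 nM HPGD preincubated 15 min at room temperature with compound in 50 mM Tris-HCl pH 8, 0.01% Tween 20. Started with 1 mM NAD+ and 30 uM prostaglandin E2; NADH fluorescence (360/450 nm) read 5 times over 30-s intervals, last minus first.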
Numbers without * were called inactive; ? = inconclusive; & = joins results of further samples. % is scaled to controls: 0 for no effect and ±100 for the full control effect; potency is read from the fitted curve at half-maximal effect. Only part of the results is shown, so the mix of outcomes need not match the whole.

HPGD block	SMILES
-23.0%	O=C(NCC1CCCO1)/C(=C/c1ccc(Cl)cc1)NC(=O)c1ccccc1 (configuration not stated)
-0.5%	CC(C)C[C@H](NC(=O)OC(C)(C)C)C(=O)N1CCC(C(=O)N[C@@H](Cc2ccccc2)C(=O)O)CC1
-10.1%	O=C(Nc1ccccc1[N+](=O)[O-])c1nc[nH]c1C(=O)NCCO
0.0%	COc1cc(-c2nnc(SC(C)C(=O)Nc3c(C)n(C)n(-c4ccccc4)c3=O)o2)cc(OC)c1OC (configuration not stated)
-6.3%	O=C(CCCn1c(=O)[nH]c2cc(Cl)ccc2c1=O)NC1CCCCCCC1
-12.7%	O=C(Cn1nc(-c2ccccc2F)ccc1=O)NCc1ccc2c(c1)OCO2
28.2µM*	O=C(Nc1ccc(C(=O)N2CCOCC2)cc1)Nc1cccc(Cl)c1
-18.7%	CCCCOC(=O)Nc1cc(OC)c(Cl)cc1OC
-14.1%	O=C(CC(=O)NCc1cccnc1)NCc1cccnc1
-4.1%	CCCCOc1ccc(CNC(=O)NS(=O)(=O)c2ccc(OCC)cc2)cc1
-2.8%	COc1ccc(CNC(=O)c2ccc3c(c2)N(C)C(=O)CS3=O)cc1 (configuration not stated)
-13.2%	Cc1nc2ccc(NC(=O)c3ccc(Cl)c(S(=O)(=O)N(C)c4ccccc4)c3)cc2s1

HPGD block, entries above that show a hit
HPGD block	SMILES
28.2µM*	O=C(Nc1ccc(C(=O)N2CCOCC2)cc1)Nc1cccc(Cl)c1

Continued.
HPGD block	SMILES
-13.2%	O=C(COC(=O)c1ccccn1)NCc1ccccc1
-3.2%	Nc1nc2n(c1C(=O)c1ccccc1)CCC2
-6.3%	Clc1ccc(OCc2nc(-c3ccc(Br)o3)no2)cc1
-8.0%	CC1(C)CC(=O)C/C(=N/NC(=O)CCCOc2ccc(Cl)cc2Cl)C1
-14.8%	COc1cc(Br)cc(/C=N/c2ncn[nH]2)c1O
-22.1%	Cn1cc(C(=O)N/N=C/C(Br)=C\c2ccccc2)ccc1=O
-8.4%	c1ccc(CN2CCC(Nc3nc(-c4ccccc4)nc4ccccc34)CC2)cc1
-9.9%	O=C(NNc1cccc(Cl)n1)Nc1cccc(Cl)c1
-23.5%	COc1ccc(-c2cc(C(F)(F)F)n3ncc(C(=O)NCC4CCCO4)c3n2)cc1 (configuration not stated)
?	COc1cc2cc(CN(Cc3nnnn3Cc3ccccc3)CC3CCCO3)c(=O)[nH]c2cc1OC (configuration not stated)
-8.9%	CCCC(c1nnnn1Cc1cccs1)N1CCN(c2ccc(OC)cc2)CC1 (configuration not stated)
-16.7%	Cc1cnc(C(=O)N2CCN(S(=O)(=O)c3ccc4ccccc4c3)CC2)cn1
-11.0%	Cc1ccc(C(=O)COC(=O)c2ccccc2N2C(=O)C3C4CCC(C4)C3C2=O)cc1C (configuration not stated)
14.1µM*	O=C1CN(C(=O)COC(=O)COc2ccc3c(c2)CCC3)c2ccccc2N1
-12.7%	COc1cccc(-n2c(C)nn(C)c2=O)c1
-8.0%	CCOC(=O)c1cc(-c2ccccc2)sc1NC(=O)CC(C)C
-7.2%	Cc1ccc(CNC(=O)c2ccc(N3CCCC3=O)cc2)cc1
-3.2%	Cc1cc(NC(=O)c2cc3ncc(Br)cn3n2)no1
-20.5%	O=C(CNC(=O)c1ccccc1F)OC(C(=O)Nc1cc(C(F)(F)F)ccc1Cl)c1ccccc1 (configuration not stated)
-4.8%	COc1ccccc1NC1=NCC(=O)N1Cc1ccccc1
3.1%	COc1ccc(CNn2c(-c3cccc(C)c3)nc3ccccc3c2=O)cc1OC
?	Cc1nn(-c2ccccc2)c(Cl)c1C(=O)N1CCN(c2ncnc3c2cnn3-c2ccccc2)CC1
-5.1%	CC1CN(Cc2nc3c(c(=O)[nH]c(=O)n3C)n2CC(N)=O)CC(C)O1 (configuration not stated)
-15.8%	CN(C=[N+](C)C)c1cccc2c1C(=O)c1ccccc1C2=O

7 compounds picked at random from the list so far, as already listed:
HPGD block	SMILES
-15.8%	CN(C=[N+](C)C)c1cccc2c1C(=O)c1ccccc1C2=O
-12.7%	COc1cccc(-n2c(C)nn(C)c2=O)c1
?	Cc1nn(-c2ccccc2)c(Cl)c1C(=O)N1CCN(c2ncnc3c2cnn3-c2ccccc2)CC1
3.1%	COc1ccc(CNn2c(-c3cccc(C)c3)nc3ccccc3c2=O)cc1OC
-11.0%	Cc1ccc(C(=O)COC(=O)c2ccccc2N2C(=O)C3C4CCC(C4)C3C2=O)cc1C (configuration not stated)
-5.1%	CC1CN(Cc2nc3c(c(=O)[nH]c(=O)n3C)n2CC(N)=O)CC(C)O1 (configuration not stated)
-7.2%	Cc1ccc(CNC(=O)c2ccc(N3CCCC3=O)cc2)cc1

A second format for three compounds above:
Compound | HPGD block
Cc1cnc(C(=O)N2CCN(S(=O)(=O)c3ccc4ccccc4c3)CC2)cn1 | -16.7%
Cc1ccc(C(=O)COC(=O)c2ccccc2N2C(=O)C3C4CCC(C4)C3C2=O)cc1C (configuration not stated) | -11.0%
O=C1CN(C(=O)COC(=O)COc2ccc3c(c2)CCC3)c2ccccc2N1 | 14.1µM*

(cont.)
HPGD block	SMILES
-0.9%	CCC(C(=O)NC(C)(C)C)N(C(=O)Cn1nnc(-c2cccs2)n1)c1cnc2ccccc2c1 (configuration not stated)
-8.6%	COCC(=O)N1CCC[C@@]2(CCN(c3ccccc3)C2)C1
-3.9%	O=S(=O)(c1ccccc1)c1cnc(-c2cccnc2)nc1-c1ccc(Cl)c(Cl)c1
-4.5%	COCCn1c(SCc2nc3ccccc3s2)nc2ccccc21
-11.3%	Cc1ccc(-n2c(=O)cc(N3CC(C)CC(C)C3)[nH]c2=O)cc1 (configuration not stated)
-27.1%&-25.4%&-13.5%&-10.2%	CCO/C([O-])=N/c1c[n+](N2CCOCC2)no1
-14.3%	COC(=O)N1CCC[C@@]2(CCN(c3ccccc3)C2)C1
-0.9%	COc1ccc(Cc2nnc(SCC(=O)N3CCN(c4ccccc4)CC3)o2)cc1
-19.1%	Cc1ccc(C)c(NC2=NCC(=O)N2c2ccc3c(c2)OCCO3)c1
-5.4%	Cc1cc(C)cc(-c2nnc(SCC(=O)c3ccc4c(c3)OCCO4)o2)c1
-16.1%	Cc1ccc(NC(=O)c2ccc(N/N=C/c3cccc(O)c3)c([N+](=O)[O-])c2)cc1
-2.9%	O=S(=O)(c1ccc(S(=O)(=O)N2CCCC3(CCCCC3)C2)cc1)N1CCCCC1
-18.9%	C1=C(CCNC2=NCCCCC2)CCCC1
-10.8%	CCN(CC)C(=O)c1cn(C)c2ccc(S(=O)(=O)N(CC)CC)cc2c1=O
1.0%	Cc1c(NC(=O)c2ccccc2F)c(=O)n(-c2ccccc2)n1C
-8.2%	Cc1csc(NC(=O)CCSCCc2ccccn2)n1
-5.5%	O=C(c1cnn2cccnc12)N1CCN(c2ccccc2)CC1
?	O=C(Cn1nc(Cl)nc1Cl)c1cc2ccccc2oc1=O
?	O=C(O)COc1cccc(-c2ocnc2-c2nc(-c3ccccc3)c(-c3ccccc3)o2)c1
-17.6%	CC(/C=N/NC(=O)c1c(Br)cnn1C)=C\c1ccccc1
-1.7%	COC(=O)CCCC1=CC2=CC(=O)C(C)(OC(=O)c3cccs3)C(=O)C2=CN1CCc1ccccn1 (configuration not stated)
-26.4%	O=S(=O)(NCc1csc(-c2cccnc2)n1)c1cccs1
-12.3%	Cc1sc2ncnc(N3CCCCC3C)c2c1C (configuration not stated)
-13.2%	COc1ccc(/C=C2\CCCC(C(=O)C(F)(F)F)=C2O)cc1
-6.6%	CCOCCOC(=O)COc1ccc(N2C(=O)c3ccccc3C2=O)cc1
-7.8%	CCOC(=O)c1ccc(N2C(=O)CC(SCC(N)C(=O)OCC)C2=O)cc1 (configuration not stated)
-8.1%	CC(=O)c1ccc(NC(=O)C2CC(=O)N(Cc3ccccc3)C2)cc1 (configuration not stated)
-11.7%	Cc1cc(C)nc(NS(=O)(=O)c2ccc(NC(=O)CCC3COc4ccccc4O3)cc2)n1 (configuration not stated)
14.1µM*	Cc1nc(N)sc1-c1csc(N(C)c2ccc(O)cc2)n1
-10.8%	c1ccc(C2(CNc3ccccn3)CCCC2)cc1
3.9%	CC1CCCC(C)N1CC(C)(C)NS(=O)(=O)c1ccc(Cl)cc1 (configuration not stated)
?	Cc1cc(C)c2c(N)c(S(=O)(=O)c3ccccc3)sc2n1
-2.1%	CCC(=O)Nc1cccc(NC(=O)c2cccc([N+](=O)[O-])c2)c1
-5.7%	COc1ccc(CCNC(=O)[C@@H]2C[C@H]2c2ccccc2)cc1OC
-23.5%	Cc1csc2c(C#N)c(=O)c3c(n12)CCC3
?	N=c1n(CCN2CCOCC2)c2ccccc2n1CC(=O)c1ccc(Cl)c(Cl)c1
-13.0%	COc1ccc(-c2nnc(SC(C)C(=O)Nc3ccc4c(c3)OCCO4)o2)cc1 (configuration not stated)
-8.8%	Clc1ccc(CSCCc2ccncc2)cc1Cl
?	COc1cc([N+](=O)[O-])ccc1NC(=S)Nc1cccc(C(=O)O)c1
-1.0%	O=C(c1cc(-c2ccccc2)on1)N1CCN(C(=O)c2ccco2)CC1
-8.8%	CC1(C)CC(=O)C2=C(C1)N(Cc1ccccc1)C(=O)C2(O)C(F)(F)F (configuration not stated)
?	CCCNC(=O)c1cc2c3ccccc3n(C)c2s1
-3.3%	c1cc(CNC2=NCCCCC2)ccn1
-11.9%	CCSc1nc2c(sc3ccccc32)c(=O)n1C(C)C
-6.5%	COC1(c2ccccc2)NC(=S)NN=C1c1ccccc1 (configuration not stated)
1.3%	CCOC(=O)CSC1=C(C#N)C(c2ccc(C)cc2)C(C(=O)OC)C(=O)N1 (configuration not stated)
-6.3%	CCOc1cccc(NC(=O)C2CC(=O)N(C)C(=Nc3ccccc3)S2)c1 (configuration not stated)
-0.8%	COc1cccc(S(=O)(=O)Nc2cccc(C(=O)N3CCOCC3)c2)c1
0.3%	CCCCCn1c(CN2CCN(C(=O)OCC)CC2)nc2c1c(=O)[nH]c(=O)n2C
15.8µM*	O=C(N/N=C/c1ccc(N2CCCCC2)o1)c1ccccc1
-7.0%	CC(=O)N1CCN(Cc2cc(=O)n3cc(Cl)c(C)c(Cl)c3n2)CC1
-16.1%	CCOC(=O)c1ccc(N2C(=O)CC(N3CCCC(C)C3)C2=O)cc1 (configuration not stated)
7.94µM*	COc1ccc(Cn2nnc3c(=O)[nH]c(C4CCN(C(=O)c5ccccc5Cl)CC4)nc32)cc1
-6.0%	O=C(CNC(=S)NC(=O)c1ccccc1)c1ccccc1
-1.4%	CCOc1ccccc1N1C(=O)c2ccc(C(=O)O)cc2C1=O
-11.2%	Cc1nn(-c2ccccc2)c(Cl)c1/C=N/NC(=O)CNC(=O)c1ccccc1Cl
-0.9%	O=C(COc1ccc(Br)cc1)N1CCN(c2ccccc2)CC1
-11.6%	COc1ccc([N+](=O)[O-])cc1NC(=O)CSc1nc(C)c(C)c(C)n1
-9.2%	Cc1ccc(N2CCN(C3=NC(=O)C(Cc4ccccc4)S3)CC2)cc1 (configuration not stated)
-4.9%	COc1ccc(C(=O)O)cc1S(=O)(=O)N(C)CCc1cccnc1

(list continues)
HPGD block	SMILES
-29.2%	COc1ccc(CNc2nc(-c3ccccc3)nn2C(=O)c2cccs2)cc1
-12.8%	O=C(O)c1ccccc1C(=O)Nc1cc2c(cc1Br)-c1ccccc1C2=O
?	CCn1c(-c2cc3c(C(F)(F)F)nn(C)c3s2)n[nH]c1=S
-3.0%	COc1ccc(N2C(=O)CC(N3CCC(O)(c4cccc(C(F)(F)F)c4)CC3)C2=O)cc1 (configuration not stated)
-29.6%	COc1ccc(CSc2n[nH]c(C)n2)cc1Br
-9.8%	CC(C)=CCc1c(O)cc(C)oc1=O
-13.6%	O=C(/C=C/c1ccoc1)c1ccccc1O
-1.7%	Cc1ccc(C2CC(=O)NC3=C2C(=O)CCC3)cc1Br (configuration not stated)
-2.4%	CNC(=O)COC(=O)[C@@H](Nc1ccc(S(=O)(=O)N2CCOCC2)cc1[N+](=O)[O-])C(C)C
0.3%	CC(=O)c1c(N2CCN(C(=O)c3ccco3)CC2)nc(=S)n(-c2ccccc2)c1C
-8.6%	COc1ccc(/C=C2\OC(=S)N(C)C2=O)cc1
-15.3%	Cc1c(-c2ccccc2)nc2ccccc2c1C(=O)OCC(=O)Nc1ncc(C(F)(F)F)cc1Cl
-14.0%	COc1ccccc1OCCCCOc1ccccc1F
-6.1%	Cc1nnc(NC(=O)CSC2CCCCC2)s1
0.7%	CCN(CC)S(=O)(=O)c1ccc(NC(=O)C(C)N(c2ccccc2)S(C)(=O)=O)cc1 (configuration not stated)
-16.0%	CN(C)c1nc(Cl)cc(N2CCOCC2)n1
-3.5%	COC(=O)C(C)n1cnc2c(nnn2-c2ccc(OC)cc2)c1=O (configuration not stated)
-2.9%	CCOC(=O)C(=CNc1cc(C)nn1C(C)(C)C)C(=O)OCC
-7.4%	O=C(CSc1nnc(Cn2nnc(-c3ccccc3)n2)n1-c1ccccc1)Nc1ccccc1
-19.8%	O=C(COc1ccccc1)Nc1ccccc1N1CCCCC1
-17.4%	Cc1cccc([C@H]2[C@@H]3C=CCC[C@@H]3C(=O)N2Cc2ccccc2)c1
-1.5%	CC(=O)[C@@]1(O)CC[C@H]2[C@H]3C[C@@H](C)C4=CC(=O)C=C[C@]4(C)[C@@]3(F)[C@@H](O)C[C@]21C
-0.1%	C=CCn1c(C)cc(C(=O)Cn2ncc(Cl)c(Cl)c2=O)c1C
-3.3%	CCOC(=O)N1CCN(C(=O)COc2ccc(S(=O)(=O)Nc3ccc(OCC)cc3)cc2)CC1
?	CCCCC(=O)Nc1nc(C)c(-c2csc(Nc3ccc(Cl)cc3)n2)s1
-5.4%	Cn1c(=O)n(CCN2CCOCC2)c(=O)c2c1nc1n2CCN1c1ccc(Oc2ccccc2)cc1
-18.3%	CCOC(=O)c1[nH]c(C)c(C(=O)OCc2c(C)noc2C)c1C
